Choline anaer gr: choline-fed anaerobic bacterial growth inhibition; Gram-negative bacterium anaerobic choline minimal medium, absorbance growth; active compounds read low; many inactives read as strong as hits in the columns shown; calls only; 55,000 compounds, 0.2% hits; AID 1963822;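 active means growth z-score on choline under -2 at 7 or 20 h with little or no fall on glycerol, limits in tiers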;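 further: stock transfer was 300 nL into about 50 µL; the organism is E. coli; final concentration not given here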
Choline anaer gr early: also measured in Choline anaer gr; calls as there; z-score; measured here: choline growth z-score, timepoint 1;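 score of optical density at 7 h as mean of two plates; lower means less growth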
* marks the source's active call; other numbers are inactive results; i = inactive; & = joins results of further samples. Some of the compounds tested; the hit share may differ from the screen's.

entry	canonical_smiles	Choline anaer gr	Choline anaer gr early
1	O=C(Cc1nnc(NC(=O)Nc2cccc(Cl)c2)s1)NCc1ccccc1	i	0.9
2	Cc1ccc(S(=O)(=O)Nc2c(C)nc3nc[nH]n3c2=O)c(C)c1	i	-1.2
3	CC(C)(C)NC(=O)c1ccc(-c2cc(N3CCCC3)ncn2)cc1	i	-0.14
4	O=c1cc(-c2ccccc2)nc(Nc2ccccc2)[nH]1	i	-0.12
5	CCOc1ccc(NC(=O)c2ncoc2-c2cccc(Cl)c2)cc1	i	0.74
6	O=c1c2ccccc2n2c(=O)n(Cc3ccc(F)cc3)nc2n1Cc1ccc(F)cc1	i	-0.59
7	CC(C)n1cc(C(=O)O)c(S(=O)(=O)N2CCCC2)n1	i	0.01
8	CCn1c(C(=O)NCc2ccccn2)cc2c(=O)oc3ccccc3c21	i	-0.64
9	CCCCN(C)C(=O)c1cc2cccnc2n(Cc2ccccc2)c1=O	i	-1.5
10	CCC(C(=O)Nc1ccc(OC)cc1)n1nc(-c2ccccc2)c2c(c1=O)CCCC2 (stereo unspecified)	i	0.46
11	CCCc1nc(Nc2ccccc2)[nH]c(=O)c1Br	i	2
12	O=S(=O)(c1ccc(Cl)cc1)N1CCCC(c2nc(-c3ccc(Br)cc3)no2)C1 (stereo unspecified)	i	0.03
13	CC(C)n1cnc(S(=O)(=O)N2CCC(C(=O)Nc3cccnc3)CC2)c1	i	-0.42
14	COc1ccc(OC)c(NC(=O)Cn2c3ncccc3c(=O)n2-c2ccc(C)cc2)c1	i	1
15	Cc1ccc(Nc2cc(N3CCN(S(=O)(=O)c4cc(C)c(C)cc4C)CC3)nc(C)n2)cc1	i	0.92
16	Cc1cccc(C2C3=C(CC(c4ccc(O)cc4)CC3=O)Nc3onc(C)c32)c1 (stereo unspecified)	i	-0.54
17	CC(=O)N1CCCc2cc(S(=O)(=O)NC3CCN(Cc4ccccc4)CC3)ccc21	i	0.05
18	S=C(S)OC1CC2CC1C1CCCC21 (stereo unspecified)	i	-0.01&-0.24&0.81
19	COc1ccc(OC)c(NC(=O)Nc2ccccc2Sc2cc(C)nc3ncnn23)c1	i	-0.37
20	CC1(C)C(=O)N(CC(=O)Nc2ccc3c(c2)OCO3)c2ccc(S(=O)(=O)N3CCCCC3)cc21	i	-0.01

Random excerpt: 4 records from the list
entry	canonical_smiles	Choline anaer gr	Choline anaer gr early
4	O=c1cc(-c2ccccc2)nc(Nc2ccccc2)[nH]1	i	-0.12
17	CC(=O)N1CCCc2cc(S(=O)(=O)NC3CCN(Cc4ccccc4)CC3)ccc21	i	0.05
3	CC(C)(C)NC(=O)c1ccc(-c2cc(N3CCCC3)ncn2)cc1	i	-0.14
5	CCOc1ccc(NC(=O)c2ncoc2-c2cccc(Cl)c2)cc1	i	0.74

(further entries)
entry	canonical_smiles	Choline anaer gr	Choline anaer gr early
21	CCc1nnc2sc(COc3ccccc3Cl)nn12	i	0.96
22	Cc1ccccc1-c1ccc(N2CCCC(C(=O)NC(C)CCc3ccccc3)C2)nn1 (stereo unspecified)	i	1.2
23	CCOc1ccccc1NC(=O)NCc1ccc2c(c1)N(C(=O)c1ccc(C)cc1)CC2	i	-0.22
24	Cc1cc(N2CC(C)CC(C)C2)n2nc(-c3ccccc3)cc2n1 (stereo unspecified)	i	0.01
25	O=C(Nc1ccc2c(c1)OCO2)C1CCCN(c2ncc(-c3ccccc3)cn2)C1 (stereo unspecified)	i	2.3
26	CC(NC(=O)c1ccccc1)c1nc(Cn2c(=O)oc3ccccc32)no1 (stereo unspecified)	i	-0.24
27	CCOc1ccc2c(c1)c1nnc(-c3ccc(C)cc3)c-1cn2Cc1ccccc1	i	0.94
28	CCn1c(C)c(CN2CCC(C(=O)NCc3ccccn3)CC2)c2ccccc21	i	0.48
29	O=C(CNC(=O)Cc1ccc(F)cc1)NCc1cscn1	i	0.33
30	CCc1ccc(NC(=O)N2CCN(Cc3nc(-c4ccc(C(=O)NC)cc4)oc3C)CC2)cc1	i	-0.97
31	Cc1cccc(N2CCN(C(=O)c3cc(C4CC4)[nH]n3)CC2)c1C	i	0.19
32	O=C(Nc1ccc(F)cc1Cl)c1cc(-c2ccncc2)n[nH]1	i	-0.74
33	CN1CCN(C(=O)CN2C(=O)C3CCCN3C(=O)c3cc(F)ccc32)CC1 (stereo unspecified)	i	-0.09
34	O=C(NCCC1=CCCCC1)c1[nH]nc2c1CSc1ccccc1-2	i	-0.56
35	Cc1ccc(C(=O)NC(C)c2ccc3c(c2)OCCO3)cc1-n1nnc2cccnc21 (stereo unspecified)	i	0.61
36	CCOC(=O)c1ccc(Nc2nc3nonc3nc2Nc2cccc(C)c2C)cc1	i	0.4
37	Cc1cc(C)cc(C(=O)Nc2ccc(-c3cn4c(C(=O)N(C)C)csc4n3)cc2)c1	i	-0.78
38	Cc1ccc2c(c1)NC(=O)c1cc(S(=O)(=O)N3CCC(C)CC3)c(Cl)cc1O2	i	1.7
39	Cc1ccccc1CNC(=O)C1(C)CCCN(C(=O)c2ccccc2Br)C1 (stereo unspecified)	i	-1.4
40	O=S1(=O)N=CN(c2ccc3c(c2)CCC3)c2ncccc21	i	0
41	O=C(Nc1ccc2c(c1)OCO2)N1CCCN(c2nc3cc(F)ccc3n3cccc23)CC1	i	-0.79
42	O=C(NC1CC1)C1CCCN1C(=O)c1ccc(NS(=O)(=O)c2ccc(F)cc2)cc1 (stereo unspecified)	i	-1.2
43	O=C(NCc1ccc(Cl)cc1)c1ccc(NC(=O)N2CC3CCCN3c3ccccc32)cc1 (stereo unspecified)	i	0.1
44	CCN(CC)C(=O)Cn1c(=O)n(CCc2ccccc2)c(=O)c2c1c(C)nn2CC	i	0.85
45	CCCc1cc(N2CCN(C(=O)C3(c4ccccc4)CC3)CC2)nc2nnc(C)n12	i	-0.35
46	O=C(NCCn1c(-c2ccc(F)cc2)nc2cccnc21)Nc1ccccc1Cl	i	1.5
47	Cc1cc2[nH]c(=O)[nH]c2cc1NS(=O)(=O)c1cc(F)ccc1F	i	-0.78
48	CC(Sc1nc2ncccc2o1)C(=O)N(C)c1ccc(F)cc1 (stereo unspecified)	i	0.02
49	COCCC(=O)N1CCCn2nc(-c3cccs3)cc2C1	i	-0.8
50	Cc1cccc(NC(=O)CCNS(=O)(=O)c2c(C)[nH]c(C)c2C(=O)N2CCCC2)n1	i	0.56
51	COc1cccc(NC(=O)CCc2c(C)n(C)c3cc(-c4ccccc4OC)nn3c2=O)c1	i	0.88
52	Cc1ccc(-n2c(=O)[nH]c3c(sc4ncccc43)c2=O)cc1Cl	i	0.59
53	O=C(Cn1cnc(S(=O)(=O)N2CCCCC2)c1)N1CCc2ccccc2C1	i	0.21
54	Cc1ccc(C(C)NC(=O)CCc2nc(-c3cc4cc(C)ccc4[nH]c3=O)no2)cc1 (stereo unspecified)	i	0.24
55	O=C(NCC1CC1)C1=C2CCCN2c2ccc(F)cc2S1(=O)=O	i	-1.6
56	Cc1ccc(-c2cc3n(n2)CCC(=O)N3CC(=O)N2CCC(C)CC2)cc1	i	-0.19
57	CCN(CC)CCSc1nc(O)c(-c2ccccc2)c(=O)[nH]1	i	-2.1
58	O=C(Nc1ccc(-c2ccno2)cc1)c1cc(-c2ccncc2)n[nH]1	i	0.43
59	CCC(=O)Nc1ccc2nc(SCc3cc(=O)c4cc(C)cc(C)c4[nH]3)sc2c1	i	0.17
60	Cc1nc(-c2cccc(NC(=O)C3CC(=O)N(C4CCCC4)C3)c2)no1 (stereo unspecified)	i	-0.38

Compound profiles, as listed above. Order of values: Choline anaer gr | Choline anaer gr early
Shown for `O=C(Nc1ccc2c(c1)OCO2)N1CCCN(c2nc3cc(F)ccc3n3cccc23)CC1` → i | -0.79
Shown for `Cc1cc2[nH]c(=O)[nH]c2cc1NS(=O)(=O)c1cc(F)ccc1F` → i | -0.78
Shown for `CC(Sc1nc2ncccc2o1)C(=O)N(C)c1ccc(F)cc1` (stereo unspecified) → i | 0.02

Continuation:
entry	canonical_smiles	Choline anaer gr	Choline anaer gr early
61	Cc1ccc(-n2ccc(=O)c(-c3nc(-c4ccc(F)c(Cl)c4)no3)n2)cc1	i	-0.87
62	O=C(c1ccc(SCCN2CCOCC2)nc1)N1CCN(Cc2ccc3c(c2)OCO3)CC1	i	-0.03
63	NS(=O)(=O)c1cccc2c1c([N+](=O)[O-])cc1nc(O)c(O)nc12	i	0.14&0.34
64	COCCN(Cc1ccc(C(C)C)cc1)Cc1cc(=O)n2nc(C3CC3)sc2n1	i	-0.14
65	O=C1Nc2cc(S(=O)(=O)NC3CCCC3)ccc2SC1C(=O)N1CCOCC1 (stereo unspecified)	i	-0.4
66	Cc1cccc([C@H]2N(c3nccs3)C(=O)[C@@H]3CCCN32)c1	i	0.98
67	O=C(Nc1ccc2c(c1)OCCO2)c1cccc(Nc2cc(-c3ccccc3)ncn2)c1	i	0.01
68	COc1ccccc1CNC(=O)C1(C)Cn2c(cc3ccsc32)C(=O)N1c1ccc(OC)c(OC)c1 (stereo unspecified)	i	1.5
69	Cc1[nH]c2ccc(CNC(=O)Nc3ccc(Cl)cc3)cc2c1C	i	-0.28
70	Cc1cccc(NC(=O)Nc2cc3c(cc2N(C)C)n(C)c(=O)n3C)c1	i	-0.31
71	Fc1cccc(-c2nnc(-c3ccccc3Cl)o2)c1	i	0.69
72	O=C(CN1c2ccc(F)cc2-c2ccccc2S1(=O)=O)NCCCn1ccnc1	i	0.08
73	O=C(NCc1csc(-c2ccccc2)n1)[C@H]1CSCN1C(=O)CCC1CCCC1	i	0.87
74	Cc1c(C(=O)N2CCNCC2)sc2nc[nH]c(=O)c12	i	0.46
75	O=C1N(c2ccc(Cl)cc2)C(c2ccc(Cl)cc2)N2CCCN12 (stereo unspecified)	i	-1.2
76	O=C(CCc1nc(CSc2nnc(-c3ccncc3)o2)no1)Nc1ccc(Br)cc1	i	0.43
77	O=C(Nc1cnc2ccccc2c1)c1cc2c(s1)-c1ccccc1OC2	i	-0.37
78	CCC(=O)N1CCN(Cc2nc3cc(NC(=O)C4CCCCC4)ccc3n2CC)CC1	i	-0.6
79	O=C(NC1CC1)c1ccc(Cn2c(SCc3ccc(Cl)cc3)nc3ccncc32)cc1	i	-0.14
80	Cc1cccc(CN2CCCC2c2cc(C(C)C)on2)c1 (stereo unspecified)	i	0.43
81	Cc1ccc2oc(-c3nnc(C(=O)N4CCCC4)o3)c(C)c2c1	i	0.34
82	O=C(O)CCCC[C@@H]1SC[C@@H]2NC(=O)N[C@@H]21	i	0.31
83	O=S(=O)(NCCn1c(-c2ccc(F)cc2)nc2cccnc21)c1ccc(Cl)cc1	i	0.28
84	COC(=O)CSCC(=O)Nc1ncc2c(n1)CC(C)(C)CC2=O	i	0.73
85	CC1CCN(C(=O)Cn2cc(SCC(=O)N3CCc4ccccc43)c3ccccc32)CC1	i	1
86	CCCCOC(=O)c1ccc(NC(=O)C2=Cc3cc(C)ccc3OC=C2)cc1	i	-0.85
87	COc1cc(C2NC(C(=O)O)CS2)ccc1OCc1ccc(C)cc1 (stereo unspecified)	i	-1.3
88	CN(C(=O)CSc1nnc(-c2ccncc2)o1)c1ccc(F)cc1	i	-1.1
89	COC(=O)c1cc(S(=O)(=O)N2CCCC2C(=O)Nc2ccc3c(c2)OCO3)cn1C (stereo unspecified)	i	-0.35
90	O=C(NC1CC1)C1COc2ccccc2C1 (stereo unspecified)	i	0.97
91	CN(C(=O)CCc1nc(-c2nn(-c3ccc(F)cc3)c(=O)n(C)c2=O)no1)c1ccc(F)cc1	i	-0.77
92	Nc1cccnc1NCc1ccc(F)cc1	i	-2
93	CCCCC(=O)N1CCCN(C(=O)Nc2ccc(S(=O)(=O)N3CCCC3)s2)CC1	i	-0.86
94	COc1ccc2[nH]c(C(=O)NCc3cccc(Br)c3)c(N3CCCC3=O)c2c1	i	0.77
95	CCCCC(=O)NC(c1ccccc1)c1ccc2cccnc2c1O (stereo unspecified)	i	1.3
96	CN(C)CCNS(=O)(=O)c1c[nH]c(-c2nnc(-c3ccc(F)cc3)o2)c1	i	-0.36
97	O=C(CSc1nnc2c3sc(N4CCCC4)nc3ncn12)Nc1ccccc1	i	0.24
98	O=C(NC1CCCC1)c1cnn2c3c(cnc12)CCCC3	i	1.4
99	O=C(CSc1nccn2nc(-c3ccc(Cl)cc3)cc12)Nc1ccc(Br)cc1	i	-0.05
100	CC(C)c1cc(C2CCCN2C(=O)c2cc(-c3ccco3)on2)on1 (stereo unspecified)	i	0.14
101	Cc1ccc(OCc2nn3c(-c4ccoc4C)nnc3s2)cc1C	i	0.04
102	COc1ccc(S(=O)(=O)n2nc(-c3ccccc3)cc2N)cc1	i	0.69
103	CN(C)c1oc(-c2ccccc2)nc1S(=O)(=O)c1ccc(Cl)cc1	i	0.33
104	Cc1cc(C2CCCN2C(=O)c2cc(C(F)(F)F)nn2C)on1 (stereo unspecified)	i	-1.1
105	O=S(=O)(c1cccnc1)N1CCN(c2ncnc3c2nnn3-c2ccccc2)CC1	i	-1.1
106	CCOC(=O)C1CCN(C(=O)c2cc3c(Cl)ccc4c3n2CC(CC)O4)CC1 (stereo unspecified)	i	2.1
107	Cc1noc(C(=O)N2CCCCC2C)c1Cl (stereo unspecified)	i	0.53
108	CCOC(=O)c1c(C)sc(-c2c(-c3cc4ccccc4o3)[nH]c3c2c(=O)[nH]c(=O)n3C)c1O	i	0.49
109	O=C(O)C1=CC(c2cn[nH]c2-c2ccc(F)cc2)n2ncnc2N1 (stereo unspecified)	i	0.75
110	O=C(NCCCN1CCOCC1)C1CCN(c2ncc(-c3ccc(F)cc3)cn2)CC1	i	-2.5
111	Cc1cc(C2CCCN2C(=O)C(C)(C)C)on1 (stereo unspecified)	i	-1.2
112	O=c1c2cc(-c3ccc4c(c3)OCO4)nn2ccn1Cc1nc(-c2ccc(F)c(Cl)c2)no1	i	0.1
113	Cc1cc(C)n2nc(COc3ccccc3)c(-c3ccccc3)c2n1	i	2.7
114	CCCS(=O)(=O)c1nc2ccc(NS(=O)(=O)c3cc(OC)ccc3OC)cc2s1	i	-2.3
